Source: PubChem BioAssay (Broad Institute)
BJeLR viab HTS = compounds reducing viability of BJeLR cells. actives 0.64% (n = 30,000). viability loss activity score, % (no concentration beside the values). BJeLR fibroblasts viability, CellTiterGlo ATP luminescence, 48 h; HRASV12, hTERT and SV40 LT/ST transformed; in the data active = viability loss activity score above about 50%; about a fifth of its hits are not listed in these tables;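 note: higher score means fewer live cells and less ATP luminescence; stock transfer was 50 or 100 nL into about 30 µL; 0% = vehicle wells and 100% = a reference killing control; one replicate is shown; the record names a cut of 85%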
A1 inh = A1 inhibition. MEF A1-2A-BIM cells, caspase-Glo luminescence, 3 h; percent of clofoctol signal, DMSO as zero. caspase activation, % (concentration not given with the values). actives 0.51% (n = 21,000);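 active = most replicate scores above 10, or exactly half above 10 with mean activity above 10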;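 note: effector caspase 3 and 7 activity cleaving a DEVD luciferin substrate; 50 nL library stock added to about 30 µL; numbers are from one replicate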
* hit, by the source's call; . = no result given; & = joins results of further samples. Some of the compounds tested; count on the stated rates, not on these rows.

SMILES	BJeLR viab HTS	A1 inh
CC1(C)C(C(=O)Nc2ccccc2C(F)(F)F)C1(C)C	2.8	0.1
C[C@@H](CO)NC(=O)C1C=C2c3cccc4[nH]cc(c34)C[C@H]2N(C)C1 (some centres undefined)	2.5	0.4
CC(Cc1c[nH]c2ccccc12)N(Cc1ccccc1)Cc1ccccc1 (centres undefined)	2.6	.
Cc1cc(OCc2c(F)cccc2Cl)c2c3c(c(=O)oc2c1)CCCC3	-1.1	0.6
O=C(CNC(=O)c1cccc(Cl)c1)Nc1ccc(Br)cc1C(=O)c1ccccc1	-7.3	0.9
CN1C(CC(O)c2ccccc2)CCCC1CC(O)c1ccccc1 (centres undefined)	-6.3	-0.7
C/C1=C/C(=O)O[C@@H]2C[C@@H](CC[C@H](C)/C=C\CC1)O[C@@](O)([C@@H]1CSC(=O)N1)C2	41	23*
COC1=C[C@@H]2C3=C([C@@H]2C1=O)[C@@H](NC(C)=O)CCc1cc(OC)c(OC)c(OC)c13	-1.8	0.3
CC1=CC2OC3[C@H](O)C[C@](C)([C@@]2(CO)CC1=O)[C@]31CO1 (some centres undefined)	37	0.3
CO[C@H]1[C@@H](O)[C@@H](C)O[C@@H](O[C@@H]2C=C3C(OC(C)=O)CC4(O)C(CC[C@]5(C)[C@@H](C6=CC(=O)OC6)CC[C@]45O)[C@@]3(C)CC2)[C@@H]1O (some centres undefined)	115*	0.6
COc1cc2occc2c2oc(=O)ccc12	3.5	0.8
N#CC(CCN1CCN(c2ccccc2)CC1)(c1ccccc1)c1ccccc1	-1.3	0.7
CCC1(CC)C(=O)C=CNC1=O	1.6	0.3
CCOc1ccc(CN(CCc2ccc3c(c2)OCO3)Cc2ccccc2)cc1	1.8	0.0
NNCc1cccc(O)c1	2.3	-2.6
N#CC(O[C@@H]1O[C@H](CO[C@@H]2O[C@H](CO)[C@@H](O)[C@H](O)[C@H]2O)[C@@H](O)[C@H](O)[C@H]1O)c1ccccc1 (some centres undefined)	-0.3	0.4
O=C(O)C1C2CC3CC(C2)CC1(n1ncc(N2CCOCC2)c(Cl)c1=O)C3 (centres undefined)	0.0	-0.2
COc1ccc(C(=O)O[C@H]2CC[C@@]3(C)[C@@H]4CC[C@H]5[C@]6(O)C[C@H](O)[C@@]7(O)[C@@H](CN8C[C@@H](C)CC[C@H]8[C@@]7(C)O)[C@]6(O)C[C@@]53O[C@]24O)cc1OC	-1.9	0.0
C[C@@H]1CCOC(=O)C=CC=CC(=O)O[C@@H]2C[C@H]3O[C@@H]4C=C(CO)CC[C@]4(COC(=O)[C@H]1O)[C@]2(C)[C@]31CO1	-2.8	0.3
Cc1c(C(=O)c2cccc3ccccc23)c2cccc3c2n1[C@H](CN1CCOCC1)CO3	18	-0.7
COc1cc2c3c(c1OC)-c1cc(O)ccc1CC3NCC2 (centres undefined)	-2.8	.
C[C@]12CCC(=O)C=C1CC[C@@H]1[C@@H]2C(=O)C[C@]2(C)C(=O)CC[C@@H]12	-7.5	-0.7
CC1(C)CC(=O)C2=C(C1)OC(N)=C(C(=O)OC(C)(C)C)C21C(=O)Nc2ccccc21 (centres undefined)	0.8	0.8
Cc1nc(-c2ccccc2)nc(OC(=O)N(C)C)c1Oc1ccc(Cl)cc1Cl	0.1	-0.7
CC1(C)CC(=O)c2cc(OCC(=O)N3CCN(Cc4ccccc4)CC3)ccc2O1	-2.3	0.9

Individual results from above.
A1 inh, Cc1nc(-c2ccccc2)nc(OC(=O)N(C)C)c1Oc1ccc(Cl)cc1Cl reads -0.7
BJeLR viab HTS, N#CC(O[C@@H]1O[C@H](CO[C@@H]2O[C@H](CO)[C@@H](O)[C@H](O)[C@H]2O)[C@@H](O)[C@H](O)[C@H]1O)c1ccccc1 (some centres undefined) reads -0.3
A1 inh, Cc1c(C(=O)c2cccc3ccccc23)c2cccc3c2n1[C@H](CN1CCOCC1)CO3 reads -0.7
A1 inh, CC1(C)C(C(=O)Nc2ccccc2C(F)(F)F)C1(C)C reads 0.1

One compound at a time (already shown). Order of screens: BJeLR viab HTS | A1 inh
`CCOc1ccc(CN(CCc2ccc3c(c2)OCO3)Cc2ccccc2)cc1` across the screens: 1.8 | 0.0
`NNCc1cccc(O)c1` across the screens: 2.3 | -2.6
`Cc1cc(OCc2c(F)cccc2Cl)c2c3c(c(=O)oc2c1)CCCC3` across the screens: -1.1 | 0.6

Retrieved by compound from above:
SMILES	BJeLR viab HTS	A1 inh
C[C@]12CCC(=O)C=C1CC[C@@H]1[C@@H]2C(=O)C[C@]2(C)C(=O)CC[C@@H]12	-7.5	-0.7
Cc1c(C(=O)c2cccc3ccccc23)c2cccc3c2n1[C@H](CN1CCOCC1)CO3	18	-0.7

Remaining list, next part:
SMILES	BJeLR viab HTS	A1 inh
Fc1ccc(C(OCCN2CCN(CCCc3ccccc3)CC2)c2ccc(F)cc2)cc1	-7.0&-2.4	-0.5&-0.6
O=c1cccc2n1CC1CNCC2C1 (centres undefined)	-1.7	-0.6
COc1ccc([C@H]2Oc3c(I)c(OC)cc(OC)c3C[C@@H]2O)cc1OC	0.9	-0.6
CCC(C)[C@H]1O[C@]2(C=C[C@@H]1C)C[C@@H]1C[C@@H](C/C=C(\C)[C@@H](OC3C[C@H](OC)C(O[C@H]4C[C@H](OC)[C@@H](O)[C@H](C)O4)[C@H](C)O3)[C@@H](C)/C=C/C=C3\CO[C@@H]4[C@H](O)C(C)=C[C@@H](C(=O)O1)[C@]34O)O2 (some centres undefined)	-4.1	-0.1
Cn1cc(C(=O)C(=O)N[C@H]2CN3CCC2CC3)c2ccccc21	-3.3	-0.4
COC1=CC(=O)O[C@@H](CCc2ccc3c(c2)OCO3)C1	.	-0.1
C[C@H]1CC[C@@H]2[C@@H](C)[C@H]3[C@H](C[C@H]4[C@@H]5CC=C6C[C@@H](O[C@@H]7O[C@H](CO)[C@H](O)[C@H](O[C@@H]8O[C@H](CO)[C@@H](O)[C@H](O)[C@H]8O)[C@H]7O[C@@H]7O[C@@H](C)[C@H](O)[C@@H](O)[C@H]7O)CC[C@]6(C)[C@H]5CC[C@]34C)N2C1	-0.7	-1.0

Compounds from the list above that have a halogen, in the order listed:
SMILES	BJeLR viab HTS	A1 inh
CC1(C)C(C(=O)Nc2ccccc2C(F)(F)F)C1(C)C	2.8	0.1
Cc1cc(OCc2c(F)cccc2Cl)c2c3c(c(=O)oc2c1)CCCC3	-1.1	0.6
O=C(CNC(=O)c1cccc(Cl)c1)Nc1ccc(Br)cc1C(=O)c1ccccc1	-7.3	0.9
O=C(O)C1C2CC3CC(C2)CC1(n1ncc(N2CCOCC2)c(Cl)c1=O)C3 (centres undefined)	0.0	-0.2
Cc1nc(-c2ccccc2)nc(OC(=O)N(C)C)c1Oc1ccc(Cl)cc1Cl	0.1	-0.7
Fc1ccc(C(OCCN2CCN(CCCc3ccccc3)CC2)c2ccc(F)cc2)cc1	-7.0&-2.4	-0.5&-0.6
COc1ccc([C@H]2Oc3c(I)c(OC)cc(OC)c3C[C@@H]2O)cc1OC	0.9	-0.6
